VACV mCherry inh: inhibitors of vaccinia virus infection (mCherry reporter signal). Vaccinia virus mCherry reporter infection, fluorescence; about a quarter of the inactives have no number. Potency, µM (titrated, usually from 36.5 µM), without a hit: at the top dose activity change, negative = inhibition, hits mostly inhibitors. hit rate 0.63% among 310,000. AID 720579; active = well fitted inhibition curve with a large enough effect; inconclusive = small, poorly fitted or top-dose-only effect; inactive = no such curve, though single readings can be large or run the other way; tested in A549 cells; also: nearly all actives have a fitted effect of over 35% in size; inactives centre near -10
VACV Venus inh: vaccinia inhibition (Venus reporter); AID 720580; Vaccinia virus Venus reporter expression, fluorescence; Potency, µM (highest dose often 36.5 µM), for inactives: top-dose activity change, negative = inhibition, usual class: inhibitors; hit rate 0.46% among 330,000; active means well fitted inhibition curve with a large enough effect; inconclusive means small, poorly fitted or top-dose-only effect; inactive means no such curve, though single readings can be large or run the other way; tested in A549 cells; also: nearly all actives have a fitted effect of over 30% in size; inactives centre near -10
The depositor's hits bear a star; i = inactive; ? = inconclusive; · = no result given; & = joins results of further samples; [ ] = remark or other dose. % is scaled to controls: 0 for no effect and ±100 for the full control effect; potency is read from the fitted curve at half-maximal effect. This is a random part of the collection; overall some 0.82% were active at least once.

SMILES	VACV mCherry inh	VACV Venus inh
N#CC1CN(Cc2ccccc2)CN(Cc2ccccc2)C1	-11%	-15%
CC(C)c1cc(C(=O)N/N=C/c2cccnc2)cs1	-18%	-15%
O=C(Nc1cccc(C(=O)N2CCOCC2)c1)NC1CCCCC1	·	-8%
Cc1cccc(C)c1NC(=O)CNCC(=O)N(C)C	-9%	0%
Clc1ccc(CN2CCSCC2)c(Cl)c1	i	-18%
COc1ccccc1NS(=O)(=O)c1ccc(OC)c([N+](=O)[O-])c1	0%	-1%
CCCCn1c2c(c3ccccc31)CCc1nonc1-2	?	-7%
Cc1cnc(C)c(-c2cc(F)cc3c2OC(CNC(=O)c2cc(Cl)ccc2F)C3)n1 (configuration not stated)	-8%	-8%
COc1ccc(Cn2ccnc2SCC(=O)Nc2nnc(C)s2)cc1	-10%	-7%&-3%
C=CCOC(=O)CCP(=O)(CCC(=O)OCC=C)c1ccccc1	·	0%
CC(C)CN1C(=O)C(=O)N(CC(=O)NC2CCCc3ccccc32)C1=O (configuration not stated)	-5%	-3%
Cc1cccc(Oc2nc3c(c(=O)n(C)c(=O)n3C)n2C)c1	-12%&5%	-15%&-6%

Profiles as entered above. Values in the order: VACV mCherry inh | VACV Venus inh
Clc1ccc(CN2CCSCC2)c(Cl)c1 is entered as i | -18%
CCCCn1c2c(c3ccccc31)CCc1nonc1-2 is entered as ? | -7%

More results:
SMILES	VACV mCherry inh	VACV Venus inh
O=c1c2ccccc2oc2c1oc1ccccc12	-8%	-5%
COc1cc(C)nc(OCCNC(=O)COc2ccc(Cl)cc2C)n1	·	-14%
CN(c1ccc([N+](=O)[O-])cc1)c1cc2c(c3c1ccn3C)C1CCC2C1 (configuration not stated)	i	6%
COc1cc2nc(NCCc3ccccc3)n3nc(-c4cccnc4)nc3c2cc1OC	-15%	-6%
CNC(=O)NCCN1CCCC1=O	·	-12%
O=[N+]([O-])c1ccc(-c2nc(Cl)c3c(n2)CCCC3)o1	11µM*	?
CN(C(=S)NC(=O)C1CC1)c1ccc(O)cc1	-10%	-6%
CCOC(=O)c1oc2ccccc2c1CSc1nnnn1-c1ccc(C)cc1	-6%	-5%
O=C1N(c2ccccc2C(F)(F)F)OC1(Cc1ccccc1)c1ccccc1 (configuration not stated)	?	?
COc1ccc(-c2nc(Cc3ccc(Cl)cc3)no2)cc1OC	·	-20%
Nc1ccc(NC(=O)c2cccc(C(=O)Nc3ccc(N)cc3Cl)c2)c(Cl)c1	-10%	?
COC(=O)c1ccc(N2OC3(C)C=CC2CC3)cc1 (configuration not stated)	-10%	-12%
Cc1ccc(NC(=O)CSc2nc(C3CCCC3)nc3c2c(=O)n(C)c(=O)n3C)c(C)c1	15%	-8%
Cc1nc2nc(NCc3ccc(Cl)cc3)[nH]n2c(=O)c1Cc1ccccc1	-10%	-5%
C=CCn1cc(C(=O)N2CCN(C)CC2)c(=O)c2cc(S(=O)(=O)N3CCCC3)ccc21	-9%	8%
O=[N+]([O-])c1ccc(O)c2ncccc12	10µM*	?
COc1cc(SC)ccc1C(=O)N1CC(C)OC(C)C1 (configuration not stated)	i	-3%
Cc1noc(C)c1COc1ccc(C(=O)OCC(=O)NCCN2C(=O)CSC2=O)cc1	9%	2%
CCC(CC)NC(=O)c1ccc2nc[nH]c2c1	·	-13%
O=C(C1CC1)N1CCC(c2nc(-c3ccc(S(=O)(=O)N4CCCC4)cc3)no2)CC1	i	-7%
CC1CCN(S(=O)(=O)c2ccc(NC(=O)[C@@H]3CCCN3C(=O)c3cccs3)cc2)CC1	-18%	-7%
CS(=O)(=O)N(CC(=O)N1CCCCCC1)c1cccc([N+](=O)[O-])c1	i	-15%
COc1ccc(OC)c(NC(=O)c2cn(C)c(=O)c3cc(OC)c(OC)cc23)c1	-15%	-11%
O=C(O)c1ccccc1-c1nc2cc(Cl)ccc2c(=O)n1O	-15%	-8%

Gathered by group: those above containing a thiophene ring, fused or not (2)
SMILES	VACV mCherry inh	VACV Venus inh
CC(C)c1cc(C(=O)N/N=C/c2cccnc2)cs1	-18%	-15%
CC1CCN(S(=O)(=O)c2ccc(NC(=O)[C@@H]3CCCN3C(=O)c3cccs3)cc2)CC1	-18%	-7%

The list continues:
SMILES	VACV mCherry inh	VACV Venus inh
CCN(CC)S(=O)(=O)c1ccc2c(c1)c(=O)c(C(=O)N1CCN(c3ccc(F)cc3)CC1)cn2C	-11%	-6%
O=C1c2ccccc2C(=O)N1CN(C(=O)COc1ccccc1)c1ccccc1	-9%	2%
CSc1nn(Cc2ccc(Br)cc2)c(N(C(C)=O)C(C)=O)c1S(=O)(=O)c1ccccc1	?	?
O=C(O)C1CC=CCC1C(=O)Nc1ccc(N2CCN(Cc3ccccc3)CC2)cc1 (configuration not stated)	-5%	-2%
C=CC[C@H](CC(=O)N(CCO)Cc1ccccc1)C(=O)N[C@@H](COC(=O)[C@@H](CC=C)Cc1ccc(F)cc1)Cc1c[nH]c2ccccc12	11µM*	10µM*
COc1cccc(NC(=O)/C(C#N)=C/c2ccc(-c3ccc(C)cc3)o2)c1	i	-15%
NS(=O)(=O)c1ccc(NC(=O)c2cccc(Cl)c2)cc1	i	-7%
CC(=O)NN1C(=O)c2ccc(Oc3ccc([N+](=O)[O-])cc3)cc2C1=O	-9%	-5%
CC(NC(=O)c1ccc(N(C)C)cc1)c1ccc(F)cc1 (configuration not stated)	i	-12%
O=Cc1[nH]c2ccccc2c1N(C(=O)CCl)c1ccccc1	-29%	-13%
CCn1c(=O)cc(SCC(=O)NCCc2ccc(OC)cc2OC)c2ccccc21	-1%	-7%
CCOc1cc(C(=O)N(CC)CC(=O)Nc2c(F)cccc2F)ccc1OCC(=O)N1CCOCC1	-6%	-6%

Entries listed so far containing two or more sulfur atoms (three):
SMILES	VACV mCherry inh	VACV Venus inh
COc1ccc(Cn2ccnc2SCC(=O)Nc2nnc(C)s2)cc1	-10%	-7%&-3%
CC1CCN(S(=O)(=O)c2ccc(NC(=O)[C@@H]3CCCN3C(=O)c3cccs3)cc2)CC1	-18%	-7%
CSc1nn(Cc2ccc(Br)cc2)c(N(C(C)=O)C(C)=O)c1S(=O)(=O)c1ccccc1	?	?

In the list so far, these have a cyano group.
SMILES	VACV mCherry inh	VACV Venus inh
N#CC1CN(Cc2ccccc2)CN(Cc2ccccc2)C1	-11%	-15%
COc1cccc(NC(=O)/C(C#N)=C/c2ccc(-c3ccc(C)cc3)o2)c1	i	-15%

Continuation.
SMILES	VACV mCherry inh	VACV Venus inh
Cc1ccc(-n2c(SCC(=O)N/N=C/c3ccccc3C(=O)O)nnc2-c2ccccc2)cc1	-21%	-15%
COc1ccc(N=C(C)C2C(=O)c3ccccc3C2=O)cc1	-11%	-8%
O=C(NCc1ccco1)c1nc(-c2ccc(F)cc2)no1	-3%	-4%
O=C(NN1CCOCC1)c1cccc(Br)c1	-19%	-10%
Cc1nnc(SCC(=O)Nc2ccc([N+](=O)[O-])cc2)n1CC1CCCO1 (configuration not stated)	i	1%
CCCCC(=O)Nc1cccc(-c2nc3ccccc3s2)c1	-16%	-9%
CCOC(=O)Cn1c(=O)n(Cc2ccco2)c(=O)c2ccc(C(=O)NC3CCCC3)cc21	9%	2%
O=C(O)CC(Cc1ccc(Cl)cc1)C(=O)Nc1cc(Cl)ccc1Cl (configuration not stated)	-13%	-3%
O=C(NC(=S)Nc1cccc2cnccc12)c1ccccc1	-4%	-9%
CC[C@@]1(C(=O)OC)N[C@H](CN(C)C(=O)c2ccc(C)cc2)[C@@H]2C(=O)N(C)C(=O)[C@@H]21	-6%	2%
Cc1ccc(C(O)(C(=O)NNc2ccccn2)c2ccc(C)cc2)cc1	-2%	-5%
COc1cc(/C=C2\SC(=S)N(CCC(=O)NCCc3ccccc3)C2=O)cc(OC)c1OC	0%	-3%
Cn1ccnc1Sc1nc2ccccc2nc1NS(=O)(=O)c1ccccc1	-9%	-4%
CCc1c(C)sc(NC(=O)c2cc(C(C)C)on2)c1C#N	-11%	-5%
COC(=O)N/N=C(\CCC(=O)O)c1cccs1	i	-1%
O=C(CN1CCCC1)Nc1cc(C(F)(F)F)ccc1Cl	i	-3%
C=CCOc1ccc(C(=O)Nc2ccccc2C(=O)NCc2cccnc2)cc1	-12%	-23%
C[C@@H]1CCC(=O)N(C[C@@H](C)CSc2ccccc2)CC1	0%&-3%	-20%&-18%
COc1ccc(C)c2sc(N(CCN(C)C)C(=O)c3ccc(S(=O)(=O)N(C)c4ccccc4)cc3)nc12	i	-10%
CC1Cc2ccccc2N1C(=O)CSc1nnc(-c2cccc(Cl)c2)o1 (configuration not stated)	-18%	-17%
CC(C)c1cc(C(=O)N2CCCC(Nc3ccc(F)cc3)C2)nc(N)n1 (configuration not stated)	-12%	-6%
O=C(Nc1ccsn1)c1ccc(Cl)cc1Cl	9%	-10%
CCCS(=O)(=O)N1CC(=O)N(c2cccc(F)c2)C(C)(C(=O)NC2CCCCCC2)C1 (configuration not stated)	-12%	-5%
Cc1ccc(Cl)cc1N1CCN(S(=O)(=O)c2c(C)[nH]c(C)c2C(=O)N2CCCC2)CC1	-2%[7.34 µM]	0%[7.34 µM]
COc1ccccc1N(CC(=O)N1CCCC1)S(=O)(=O)c1ccc(C)cc1	i	-2%
CCc1ccc(C(=O)NNC(=O)C2CC(=O)N(Cc3ccccc3)C2)cc1 (configuration not stated)	-16%	1%
CCc1nnc(NC(=O)c2oc3cc(C)c(C)cc3c2C)s1	i	-1%
CSc1nc(Oc2ccc(Cl)cc2)c2sccc2n1	·	-10%
Cc1cccc(Nc2nc(C)nc(N)c2S(=O)(=O)c2ccccc2)c1	-2%	-3%
CCOC(=O)CC1(C)Oc2cc(Cl)ccc2N1S(=O)(=O)c1ccc(C)cc1 (configuration not stated)	?	-19%
CC(C)CN1C(=O)C(NC(=O)C2CC2)(C(F)(F)F)C2=C1CC(C)(C)CC2=O (configuration not stated)	i	-8%
CCOCCCn1c(SCC(=O)Nc2ccccc2)nc2ccccc2c1=O	-22%	?
COC(=O)c1ccc(Sc2ccccn2)c([N+](=O)[O-])c1	-20%	-15%
CCN(CC(=O)Nc1ccccc1C(F)(F)F)C(=O)c1ccc2c(c1)NC(=O)C(C)S2 (configuration not stated)	-21%	-15%
Cc1c(C(=O)N(C)C)sc2c1c(=O)n(-c1ccc(F)cc1)c(=O)n2Cc1ccccc1C#N	-4%	4%
O=C(CSc1nc2ccccc2c(=O)n1-c1ccccc1F)Nc1ccc2c(c1)CCC2	-14%	-26%
CC(OC(=O)CNS(=O)(=O)c1ccc(C#N)cc1)C(=O)Nc1cccc(C#N)c1 (configuration not stated)	i	-10%
CCOc1ccc(CCNC(=O)C2CCN(C(=O)c3cc4sccc4n3CC)CC2)cc1OCC	-20%	-27%
CC(C)(C)CNC(=O)[C@]1(C)CCC[C@@]2(C)C3CC[C@@]4(C)C[C@]3(CCC21)CC4=O (some centres not stated)	-10%	1%
COc1ccc(Cl)cc1C=CC=Nc1ccc(S(N)(=O)=O)cc1	-22%	-8%
CN(CCc1ccccn1)c1ccccc1	0%	-2%
N#CC1(NC(=O)COc2cc(F)ccc2[N+](=O)[O-])CCCCC1	-7%	-23%
CCOC(=O)N1CCc2c(sc3ncn(C)c(=O)c23)C1	i	-13%
COc1ccc(N(C)C(=O)C2CCN(S(=O)(=O)c3cccc4nonc34)CC2)cc1	-3%	-1%
COc1ccc(CC(=O)NNS(=O)(=O)c2ccccc2)cc1OC	-9%	-12%
CCC1Sc2ccccc2N(CC(=O)NC2CCCC2)C1=O (configuration not stated)	i	-10%
Cc1nc([N+](=O)[O-])c(Br)n1CC(=O)c1cccc([N+](=O)[O-])c1	?	?
Cc1ccc(-c2ccc(SCC(=O)Nc3ccc4c(c3)OCCO4)nn2)cc1	-7%	-14%
O=C(COC(=O)/C=C/c1ccc2ccccc2n1)NNC(=O)c1ccccc1	?	-19%
Fc1ccccc1N1CCN(c2ncc3c(n2)CCN(Cc2ccc(Br)s2)C3)CC1	-13%	-17%
CCOC(=O)c1cc(CC)sc1NC(=O)c1ccc(N2C(=O)CCC2=O)cc1	-10%	3%
CC1=C(C(=O)N2CCOCC2)CC(CC(=O)NC(c2ccccc2)c2ccccc2)C(=O)N1Cc1ccc(F)cc1 (configuration not stated)	-15%	-13%
C=CCn1c(-c2cc3c(s2)CCC(CC)C3)n[nH]c1=S (configuration not stated)	-1%	-10%
COc1ccccc1C(=O)OCc1c(-c2ccccc2)ncc2ccccc12	-9%	-11%
COc1cccc(NC(=O)CSc2nc3ccc(NC(=O)c4cccs4)cc3s2)c1	-4%	8%
O=C(O)CCC(=O)Nc1ccccc1C(=O)N1CCN(c2ccc(Cl)cc2)CC1	i	-13%
CCCc1oc(C(=O)O)cc1CN1CCCC1	i	-9%
Cc1ccc(-c2nc3ccccc3c(=O)n2-c2ccc(Br)cn2)cc1	-2%	19%
CCn1c(CNC(=O)C23CC4CC(CC(C4)C2)C3)nnc1SCC(=O)Nc1ccc(OC)cc1	0%	-6%
CCN(CC(=O)Nc1ccc(Cl)c(S(=O)(=O)N(C)C)c1)Cc1nc2ccccc2c(=O)[nH]1	-28%	-11%

Continuation:
SMILES	VACV mCherry inh	VACV Venus inh
CCOC(=O)N1CCN(C(=O)Cc2ccc(Cl)cc2)CC1	·	-3%
CCCCC(=O)N(C)c1c(C)nc2ccc(C(=O)N3CCN(c4ccccc4)CC3)cn12	18%	-3%
Cc1cc(=O)oc2cc(OCC(=O)c3ccc4c(c3)NC(=O)CO4)ccc12	-5%	-6%
Cc1c(C(=O)Nc2ccccc2C(=O)N2CCOCC2)cccc1[N+](=O)[O-]	i	-9%
Cc1ccccc1OCC(=O)NNC(=O)Nc1ccc(Cl)cc1	?	?
CC(=O)Nc1ccc(NC(=O)CCNC(=O)c2ccccc2Cl)cc1	-1%	-17%
Clc1ccc(CO/N=C/c2cccs2)cc1	i	4%
